Vif TR-FRET = inhibitors of Vif binding to APOBEC3G peptide, primary screen, biochemical, TR-FRET, GST-Vif 1-94, biotin-A3G peptide, dose response retest (AID 1117319); TR-FRET GST-Vif / biotin-A3G peptide binding; higher % means a stronger effect; test concentration not given here; strong numbers were not always called active; inhibition, %; hits with a dose series show IC50 in µM; 260,000 compounds, 0.57% hits;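 active means above the screen mean plus three standard deviations and confirmed in dose response; inconclusive means results disagree or hit not tested in dose response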;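 further: Vif residues 1-94 fused to GST binding biotinylated APOBEC3G peptide 110-148; 0% = full assay without inhibitor and 100% = GST in place of GST-Vif; retest series ran down from 100 µM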
LANA-H2B inh = blocks KSHV LANA binding to histone H2A/H2B; cell-free LANA-H2A/H2B peptide, fluorescence polarization; inhibition, % (test concentration not listed); 320,000 compounds, 0.6% hits; AID 2629; in the data active means inhibition mostly above about 10%, no sharp cut-off; inactive means mostly below about 6.7%;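 further: stock transfer was 7.5 nL into about 10 µL; 0% = median of vehicle wells and 100% = median of positive control wells; one replicate is shown; the record names a cut of 25% in any replicate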
Beta2AR agonist = agonists of human beta-2 adrenergic receptor inducing internalization; AID 504454; Am2.2-beta2AR cells, FAP receptor internalization, flow cytometry; reference of the scale not given here; 340,000 compounds, 0.43% hits; P07550; response, % (concentration not given with the values);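 active means response above a set limit, near 3 SD of response in nonfluorescent compounds, cut at about 42% in these data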;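 further: stock transfer was 100 nL into about 11 µL; a reference agonist was the positive control; negative values mostly stem from fluorescent compounds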
E coli growth = E. coli growth inhibition | Escherichia coli growth, OD600, 23 h; active compounds read low | 330,000 compounds, 0.21% hits | OD600 absorbance (test concentration not listed);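 active means OD600 absorbance below the run mean of sample wells minus 3.6 SD, in any replicate, cut at about 0.56 in these data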;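 further: stock transfer was 300 nL into about 60 µL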
Bfl-1 A1 inh = inhibitors of the anti-apoptotic protein A1, read as caspase activation. MEF A1-2A-BIM cells, Caspase-Glo 3/7 luminescence, 3 h; percent of clofoctol response, vehicle zero. caspase activation, % (test concentration not listed). 330,000 compounds, 0.066% hits;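 active means over half of replicate activation scores above 10%, or exactly half above 10 with the replicate mean above 10; inconclusive means replicate mean below 10 yet half the replicates above 10; inactive means over half of replicates below 10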;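 further: wells of about 30 µL received 50 nL stock; many hits fall short of the cut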
HNF4A DNA FP = change in binding of human HNF4 alpha to DNA; P41235; HNF4a-FITC DNA binding, fluorescence polarization, 1 h; activity change, % at 10 µM; 360,000 compounds, 0.3% hits; in the data active means activity change above about 30%, passing the limit was not always enough;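 further: controls were the assay level and a saturating level of protein; the project sought stronger binding though the title names inhibitors; some compounds called inactive have numbers as strong as hits; positive values seem to mean higher polarization but the record does not say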
Target sequence (P41235 whole entry, looked up): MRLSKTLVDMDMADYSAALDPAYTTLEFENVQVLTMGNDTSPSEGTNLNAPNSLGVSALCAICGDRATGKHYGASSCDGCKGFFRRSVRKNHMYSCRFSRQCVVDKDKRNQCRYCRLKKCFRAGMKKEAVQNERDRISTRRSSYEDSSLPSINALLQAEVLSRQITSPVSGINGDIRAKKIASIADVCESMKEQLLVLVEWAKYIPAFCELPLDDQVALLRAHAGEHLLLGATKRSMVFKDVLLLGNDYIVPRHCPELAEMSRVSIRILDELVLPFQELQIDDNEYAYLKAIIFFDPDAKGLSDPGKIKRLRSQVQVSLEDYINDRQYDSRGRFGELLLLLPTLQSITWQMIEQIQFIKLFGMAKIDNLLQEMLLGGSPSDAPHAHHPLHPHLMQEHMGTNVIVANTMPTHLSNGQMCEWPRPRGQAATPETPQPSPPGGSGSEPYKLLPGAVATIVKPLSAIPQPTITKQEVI
UCH37 DUB inh = human UCH37 deubiquitinating enzyme inhibition | Q9Y5K5 | purified proteasome/UCH37, Ub-AMC cleavage fluorescence | inhibition, % (test concentration not listed) | 330,000 compounds, 0.33% hits;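 active means mean of two replicates above 20%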;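 further: 0% = compound-free wells with enzyme and 100% = wells lacking proteasome; stock transfer was 100 nL into about 20 µL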
Target sequence (Q9Y5K5 whole entry, looked up): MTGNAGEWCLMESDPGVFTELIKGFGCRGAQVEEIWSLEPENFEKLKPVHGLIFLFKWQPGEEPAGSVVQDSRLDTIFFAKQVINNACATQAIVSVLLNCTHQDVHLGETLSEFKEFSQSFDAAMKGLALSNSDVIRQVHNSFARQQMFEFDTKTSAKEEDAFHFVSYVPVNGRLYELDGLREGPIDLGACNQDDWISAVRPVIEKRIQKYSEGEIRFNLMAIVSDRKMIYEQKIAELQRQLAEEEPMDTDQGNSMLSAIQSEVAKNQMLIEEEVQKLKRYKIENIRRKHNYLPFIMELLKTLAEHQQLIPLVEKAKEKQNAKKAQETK
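Schedule: 30 min plus 25 min, room temperature / Material: human UCH37 within purified proteasomes / Technique: AMC fluorescence intensity at 355/460 nm / Buffer or medium: pH 7.4 Tris-HCl (50 mM) with ovalbumin, ATP-MgCl2, DTT / Controls: wells without proteasome as full block, compound-free enzyme plus substrate as uninhibited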
* hit, by the source's call; u = inconclusive; x = not tested or not shown.

SMILES | Vif TR-FRET | LANA-H2B inh | Beta2AR agonist | E coli growth | Bfl-1 A1 inh | HNF4A DNA FP | UCH37 DUB inh
COc1ccc(CNC(=O)c2cc3cc(OC)ccc3oc2=O)cc1 | -17% | 2.5 | -9 | 0.66 | -0.4 | 1.2 | -73
CCOc1ccc(C(=O)NCC(=O)OCc2c(C)noc2C)cc1 | x | -1.7 | -6 | 0.69 | 0.6 | 2.0 | -23
CC(=O)Oc1cc2c(c3ccccc13)CCC2=O | 3% | x | 10 | 0.69 | x | -0.1 | -18
Cc1cc(C)c2c(c1)-c1c(ssc1=S)C(C)(C)N2C(=O)CSc1nncn1C | 7% | 3.5 | 2 | 0.79 | 0.1 | 5.0 | 5.8
CCn1nc(C)c(CN2CCCC(CNS(=O)(=O)c3ccc(OC)cc3)C2)c1C (stereo not drawn) | -1% | 2.5 | 7 | 0.71 | -0.1 | 1.9 | 3.0
C#CCOCCOCCOCCNc1nc(N2CCN(C(=O)Cn3cc(CCCCN)nn3)CC2)nc(N2CCN(C(=O)[C@H](CCCCN)n3cc(CCCC)nn3)CC2)n1 | x | 4.1 | -2 | 0.8 | -0.1 | 3.8 | -0.7
CC(C)C(NC(=O)c1ccc(Cl)cc1Cl)C(=O)N1CCC1 (stereo not drawn) | 4% | 1.7 | -3 | 0.68 | -0.1 | 0.7 | 2.3
CCN=C1SC(C(=O)Nc2cccc(Cl)c2)CC(=O)N1CC (stereo not drawn) | 0% | -2.8 | 5 | 0.7 | -0.4 | -2.1 | -2.0
CN(C)C1=NC[C@H](Cc2ccccc2)N1CC1CCCC1 | x | -1.7 | 2 | 0.71 | 0.1 | -1.8 | -0.1
CCOC(=O)Cn1cnc2c(nnn2Cc2ccc(Cl)cc2)c1=O | 3% | 1.7 | 5 | 0.7 | -0.5 | 5.7 | 3.1
CCOC(=O)Cc1csc(SCC(=O)N2CCN(c3ccccc3)CC2)n1 | 3% | 1.6 | 2 | 0.66 | 1.1 | 2.7 | 4.7
COCCNC(=O)CCn1nc(-c2ccc(Cl)cc2)c2ccccc2c1=O | -4% | -3.7 | -10 | 0.67 | -0.2 | 3.1 | 1.2
COc1ccc2nc3oc(C(=O)N4CCN(c5ccccc5F)CC4)cc3cc2c1 | -2% | 3.2 | 5 | 0.74 | 0.6 | -0.3 | -18
Cc1oc2ccc(OCc3ccc(Cl)cc3)cc2c1C(=O)O | 1% | -2.2 | 13 | 0.67 | -3.0 | -0.6 | 5.4
O=C(Nc1ccc(Nc2ccccc2)cc1)C1CC1 | 25% | 0.8 | 4 | 0.68 | -0.2 | 0.1 | 0.5
CCOC(=O)C1CCCN(C(=O)C2CCN(S(=O)(=O)c3cccs3)CC2)C1 (stereo not drawn) | 21% | -0.5 | 5 | 0.68 | 0.5 | -1.1 | -3.7
Cc1[nH]nc2c1C(c1ccccn1)N(c1ccc(Br)cc1)C2=O (stereo not drawn) | 0% | 2.3 | -7 | 0.69 | -0.1 | 1.9 | 4.5
COc1cccc(NC(=S)NC(=O)Cc2ccccc2)c1 | x | -5.7 | 3 | 0.64 | -0.2 | 3.7 | 1.6
COc1ccc(CCNC(=O)C2CCCN(C(=O)N(C)C)C2)c(OC)c1 (stereo not drawn) | u | -3.6 | 0 | 0.69 | -0.8 | -1.9 | 1.0
Cc1ccc(NC(=O)c2cc(NC(=O)CCCC(=O)O)ccc2Cl)cc1Cl | u | -0.4 | -7 | 0.7 | -2.2 | 3.5 | 2.3

Random excerpt: 5 compounds from above.
SMILES | Vif TR-FRET | LANA-H2B inh | Beta2AR agonist | E coli growth | Bfl-1 A1 inh | HNF4A DNA FP | UCH37 DUB inh
Cc1oc2ccc(OCc3ccc(Cl)cc3)cc2c1C(=O)O | 1% | -2.2 | 13 | 0.67 | -3.0 | -0.6 | 5.4
O=C(Nc1ccc(Nc2ccccc2)cc1)C1CC1 | 25% | 0.8 | 4 | 0.68 | -0.2 | 0.1 | 0.5
CN(C)C1=NC[C@H](Cc2ccccc2)N1CC1CCCC1 | x | -1.7 | 2 | 0.71 | 0.1 | -1.8 | -0.1
CC(=O)Oc1cc2c(c3ccccc13)CCC2=O | 3% | x | 10 | 0.69 | x | -0.1 | -18
CCOC(=O)Cn1cnc2c(nnn2Cc2ccc(Cl)cc2)c1=O | 3% | 1.7 | 5 | 0.7 | -0.5 | 5.7 | 3.1

Continued.
SMILES | Vif TR-FRET | LANA-H2B inh | Beta2AR agonist | E coli growth | Bfl-1 A1 inh | HNF4A DNA FP | UCH37 DUB inh
COc1ccc(C)cc1NC(=O)CCCN1C(=O)CN(C)C1=O | x | -1.0 | -1 | 0.66 | 0.1 | -2.1 | -2.2
O=C(c1cc(N2C(=O)C3C4CCC(C4)C3C2=O)ccc1Cl)N1CCN(c2ccccc2)CC1 (stereo not drawn) | x | 0.7 | -3 | 0.71 | -0.5 | -2.6 | 2.1
COc1cc(/C=C2\NC(=S)NC2=O)ccc1OCc1cccc(C(=O)O)c1 | 11% | 4.4 | -4 | 0.69 | -0.8 | 3.9 | 4.7
c1ccc2c(COn3nnc4ccccc43)cccc2c1 | 3% | -9.6 | -1 | 0.66 | 0.6 | -0.4 | 3.0
COc1ccc(/C=C(/NC(=O)c2ccccc2)c2nc3ccccc3[nH]2)cc1OC | -9% | -2.0 | 2 | 0.73 | 0.4 | -3.9 | 5.0
O=C(CSc1nnc(COc2ccccc2F)n1-c1ccccc1)NCc1ccco1 | 1% | 2.6 | 3 | 0.75 | 0.0 | 0.0 | -1.2
COc1cc(C(=O)NC(=S)N2CCN(C)CC2)cc(OC)c1OC | -3% | 4.3 | 1 | 0.69 | -0.2 | 0.0 | 1.8
O=c1c(Oc2ccccc2Br)c(C(F)(F)F)oc2c(CN3CCCC3)c(O)ccc12 | 22% | 0.0 | 7 | 0.68 | 0.6 | -2.0 | -4.3
COc1ccccc1NS(=O)(=O)c1ccc(NC(=O)CCNC(=O)c2ccco2)cc1 | 2% | 2.6 | -3 | 0.66 | 1.6 | -1.6 | 0.7
CCOC(=O)c1c(NC(=S)N2CCN(C)CC2)sc(C)c1-c1ccccc1 | x | -0.6 | 4 | 0.71 | -0.6 | -3.2 | 3.7
CN(C)c1nc(-c2cccs2)cc(C(F)(F)F)c1C#N | 5% | -2.2 | 3 | 0.65 | -0.6 | 5.2 | -109
O=C(NC1CCCN(c2ccc(C(F)(F)F)cn2)C1)c1cc(Cl)ccc1F (stereo not drawn) | 12% | 0.6 | 1 | 0.72 | -0.1 | 0.8 | 2.8
C=CCOc1c(Br)cc(CNc2ccc(NC(=O)C(C)C)c(OC)c2)cc1OCC | x | -4.1 | 13 | 0.7 | 0.3 | 3.4 | 5.2
CCOC(=O)c1c(NC(=O)CCS(=O)(=O)c2ccccc2)sc2c1CCN(C)C2 | -11% | 53* | 19 | 0.71 | -0.7 | 21 | 4.3
COc1cc(CNCCc2c[nH]c3ccccc23)cc(Cl)c1OCC(N)=O | 0% | -1.0 | 10 | 0.7 | 0.1 | 4.8 | -1.7
O=C(C=Cc1cccs1)c1cccs1 | 1% | x | 4 | 0.63 | x | -1.0 | 1.8
CC1CN(Cc2nc3c(c(=O)n(C)c(=O)n3C)n2CCc2ccccc2)CC(C)O1 (stereo not drawn) | x | 3.8 | 0 | 0.78 | -0.1 | -3.0 | 0.9
Cc1c(O)ccc(C(=O)COc2ccc(F)cc2)c1O | 9% | 5.3 | 2 | 0.67 | -0.1 | -2.7 | 1.0
CC(=O)Nc1nc2cccc([N+](=O)[O-])c2s1 | 11% | -5.2 | 4 | x | 0.2 | -1.1 | x
CCCCNC(=O)c1onc(CSc2ccc(Cl)cc2)c1C(=O)O | 10% | 5.0 | 4 | 0.64 | -0.2 | -1.8 | 0.8
Cn1c(SCC(=O)Nc2ccc3cn[nH]c3c2)nnc1-c1cnccn1 | 24% | 0.0 | 2 | 0.69 | 0.0 | -3.2 | 1.1
COc1ccc(-c2cc(CCCC(=O)NCCc3ccccc3)no2)cc1 | x | -2.3 | -7 | 0.69 | -1.9 | -2.2 | 5.0
Cc1ccccc1NC(=O)CCSc1nnnn1-c1ccccc1 | 11% | 4.2 | -9 | 0.73 | -0.1 | 7.6 | 4.6
O=C(NCCN1CCN(C(=O)C(c2ccccc2)c2ccccc2)CC1)C(=O)Nc1ccccc1 | 0% | 0.0 | -4 | 0.69 | 0.8 | -0.2 | -0.2
CCc1[nH]nc2c1C(C1C=CCCC1)C(C#N)=C(N)O2 (stereo not drawn) | -2% | 2.8 | 4 | 0.69 | -0.4 | 1.4 | -1.3
Cc1ccc(C(=O)OCC(=O)N(CC(C)C)c2c(N)n(Cc3ccccc3)c(=O)[nH]c2=O)cc1[N+](=O)[O-] | -5% | -0.5 | 3 | 0.61 | -0.1 | -1.1 | -19
COc1ccc(C(=O)NC(=S)N2CC(C)OC(C)C2)cc1OC (stereo not drawn) | x | 3.7 | -2 | 0.63 | -0.1 | 0.7 | 3.4
Cc1[nH]n(-c2ccccc2)c(=O)c1/C=N/NC(=O)c1ccoc1C | 0% | -3.0 | 1 | x | -3.4 | -0.3 | x
COc1ccc(S(=O)(=O)N(C)C)cc1NC(=O)COC(=O)c1nn(C)c(=O)c2ccccc12 | -9% | -0.4 | -12 | 0.68 | -0.3 | 1.9 | 2.5
CCc1cc2c(=O)oc(-c3ccc(Br)cc3)nc2s1 | -11% | x | 12 | 0.71 | x | -6.0 | -37
COC(OC)c1nc(SCC(=O)Nc2cccc(Cl)c2)ncc1C(=O)O | -3% | 2.1 | 5 | 0.69 | 0.1 | 1.4 | 15
CCOC(=O)C1=C(C)Nc2ncnn2C1c1ccccc1F (stereo not drawn) | 2% | -3.8 | 0 | 0.71 | -0.3 | 3.0 | -1.0
CCOC(=O)c1ccc(NC(=O)C2CC(=O)Nc3nc4ccccc4n32)cc1 (stereo not drawn) | x | 0.6 | 5 | 0.75 | 0.3 | -4.3 | 1.3
C[C@@]12C(=O)Nc3cc(F)c(F)cc3C(=O)N1[C@H]1c3ccccc3OC[C@@H]1[C@@H]2c1ccccc1 | x | x | 7 | x | x | -3.9 | 0.5
COCCNC(=S)N(CCc1c(C)[nH]c2ccccc12)Cc1cccnc1 | -1% | 0.7 | -5 | 0.71 | u | 1.5 | 6.0
Nc1nc(C2CCCN2S(=O)(=O)c2ccc(Cl)cc2)cs1 (stereo not drawn) | 27% | -3.4 | -3 | 0.73 | -0.2 | 0.3 | 0.8
CCCc1nnc(NC(=O)CC(=O)OCC)s1 | 12% | 0.2 | 9 | 0.71 | 0.0 | 0.9 | -1.7
S=c1[nH]nc(Cc2ccccc2)n1-c1ccc(Cl)cc1 | x | 1.4 | -3 | 0.68 | -0.4 | 1.1 | 2.7
CCOC(=O)C1(Cc2ccccc2Cl)CCN(C(=O)CN2CCOC2=O)CC1 | -5% | 0.9 | 1 | 0.76 | 0.3 | -1.9 | -0.4
O=C(c1ccc2c3c(cccc13)CC2)C1CCCN(Cc2ccncc2)C1 (stereo not drawn) | -4% | 0.9 | -2 | 0.65 | 0.4 | 3.1 | -69
Cc1nn2c(NCCN(C)C)c3c(nc2c1-c1ccccc1)CCCC3 | 2% | -8.2 | -3 | x | -0.2 | 3.1 | x
COc1ccc(C(=O)COc2ccccc2N2C(=O)C3C4C=CC(C4)C3C2=O)cc1 (stereo not drawn) | 7% | 0.5 | -12 | 0.76 | 0.2 | -2.2 | 2.9

Source: PubChem (several laboratories)
